Menin MLL FP FL: menin-MLL binding inhibition, fluorescein peptide | Fluorescence polarization, fluorescein-MLL peptide displacement from menin | FP activity change, % at 61.4 µM | 290,000 tested, under 10 active | AID 1766; inconclusive = falling polarisation curve, or a change in total fluorescence; inactive = total fluorescence flat and polarisation flat or rising; no compound was filed as active; the % refers to the polarisation; negative = inhibition;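 further: % of control where 0% means no effect; inhibitors lower the polarisation; unlabelled MLL peptide was the positive control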
ClpP mod: qHTS Assay for Activators of ClpP; purified B. subtilis ClpP, FRET peptide cleavage, 20 min; Potency, µM (titrated, usually from 57.5 µM), inactives show at the top dose activity change, negative = active; actives 1.9% (n = 340,000); AID 651965, 2013; active = well fitted falling curve with a large enough effect; inconclusive = small, poorly fitted or top-dose-only effect; inactive = no such curve, though single readings can be large or run the other way; further: potency means the concentration at half of the fitted maximal effect; the source files actives as falling curves though it sought activators and does not explain the sign; nearly all actives have a fitted effect of over 65% in size; many hits overshoot -100%
Target sequence (P80244 whole entry, looked up): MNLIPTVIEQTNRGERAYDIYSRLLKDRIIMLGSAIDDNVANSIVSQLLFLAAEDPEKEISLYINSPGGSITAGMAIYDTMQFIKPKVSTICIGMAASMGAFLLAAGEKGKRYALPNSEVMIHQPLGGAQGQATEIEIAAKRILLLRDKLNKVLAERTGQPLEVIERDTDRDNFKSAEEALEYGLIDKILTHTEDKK
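Purified B. subtilis ClpP, 10 microg/mL final in Tris/HCl pH8 with KCl, BSA, glycerol and Tween-20, cleaved an Abz/nitrotyrosine-quenched decapeptide. Fluorescence (ex 320, em 430) was read at 0 and 20 min at room temperature. Delta was normalized to 5.8 microM ADEP and DMSO/no-enzyme controls.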
TRPML1 inh: inhibitors of human TRPML1 channel. Q9GZU1. TRPML1-inducible cells, Ca2+ dye fluorescence, FDSS; active compounds read low; inhibition of EC80 agonist-evoked calcium signal. activity change, negative = inhibition, % (test concentration not listed). actives 0.02% (n = 390,000). AID 624415; in the data active means activity change below about -50%; inconclusive means about -30% to -50%; inactive means above about -30%;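 further: stimulus is agonist 54-4 at its EC80 concentration; on the % scale 0 is the no-effect control and ±100 the full control effect; compound concentration not given in the record; the text of the record puts the active cut at -80%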
Target sequence (Q9GZU1 whole entry, looked up): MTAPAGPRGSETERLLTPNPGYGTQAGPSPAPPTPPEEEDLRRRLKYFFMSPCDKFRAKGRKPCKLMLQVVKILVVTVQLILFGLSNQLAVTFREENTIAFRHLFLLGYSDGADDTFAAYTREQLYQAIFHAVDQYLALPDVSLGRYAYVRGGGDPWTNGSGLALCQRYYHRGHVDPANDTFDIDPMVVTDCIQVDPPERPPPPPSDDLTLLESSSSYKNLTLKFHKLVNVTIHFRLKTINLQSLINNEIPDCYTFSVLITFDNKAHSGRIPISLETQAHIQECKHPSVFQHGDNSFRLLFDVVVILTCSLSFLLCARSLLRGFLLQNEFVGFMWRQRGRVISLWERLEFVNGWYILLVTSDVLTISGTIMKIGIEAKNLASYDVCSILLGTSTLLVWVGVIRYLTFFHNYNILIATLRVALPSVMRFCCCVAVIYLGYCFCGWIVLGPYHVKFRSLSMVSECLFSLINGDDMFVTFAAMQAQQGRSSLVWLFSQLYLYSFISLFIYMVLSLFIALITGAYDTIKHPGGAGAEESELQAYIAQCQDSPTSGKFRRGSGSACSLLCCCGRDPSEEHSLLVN
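Calcium fluorescence in TRPML1-DL cells induced overnight with Tet: a 110 s read after compound pin addition, then a 110 s antagonist read after challenge with 54-4 at 4 uM final (EC80).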
gsp agonist: activates gsp, the McCune-Albright syndrome mutation | gsp mutant cells, cAMP HTRF, 30 min; control for the full effect not named in the record | Potency, µM (highest dose often 76.9 µM), for inactives: at the top dose activation (cAMP increase), usual class: activators | actives 0.13% (n = 340,000) | AID 624287; active = well fitted activation curve with a large enough effect; inconclusive = small, poorly fitted or top-dose-only effect, or another doubt; inactive = no such curve, though single readings can be large or run the other way; cell line not stated here;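 further: phosphodiesterase inhibitor Ro 20-1724 added with compounds to block cAMP breakdown; potency means the concentration at half of the fitted maximal effect; nearly all actives have a fitted effect of over 60% in size; about a fifth of the inactives were tested at one dose only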
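Cells in DMEM/10% FBS with G418 were pretreated with compounds in DMSO plus […] (300 uM stock) for 30 min at 37C. cAMP was measured by HTRF (cAMP-d2 plus anti-cAMP antibody-K) after 30 min at room temperature.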
gsp antagonist: gsp mutant antagonism | actives 0.4% (n = 340,000) | Potency, µM (highest dose often 76.9 µM), for the others: at the highest dose activity change, negative = inhibition, most hits filed as inhibitors | gsp-mutant cells, cAMP HTRF, 30 min; control for the full effect not named in the record; active = falling curve of any shape with a large fitted effect; inconclusive = falling curve, mostly with a smaller effect; inactive = flat or rising curve; cell line not stated here;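 further: intracellular cAMP measured with PDE inhibitor Ro 20-1724 present during compound exposure; potency means the concentration at half of the fitted maximal effect; on the % scale 0 is the no-effect control and ±100 the full control effect; nearly all actives have a fitted effect of over 65% in size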
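HTRF cAMP read-out (cAMP-d2 plus anti-cAMP antibody-K in lysis buffer, 30 min RT). Before lysis, cells are exposed to compounds with […] for 30 min at 37C in DPBS containing Ca/Mg, BSA and Tween 20.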
TRPML1 agonist: activates the human TRPML1 channel | activation, % (test concentration not listed) | actives 0.12% (n = 410,000) | Q9GZU1 | TRPML1-expressing cells, Ca2+ dye fluorescence, FDSS; host cell line not named in the record; reference of the full effect not given here; in the data active = activation above about 50%; inconclusive = about 30% to 50%; inactive = below about 30%; further: 0% is about no effect; the text of the record puts the active cut at 80%
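Agonist activity was taken from a 110 s kinetic Ca2+ dye read on the FDSS after pinning compounds onto TRPML1-DL cells. The cells were seeded at 1,500/well with Tet inducer, incubated about 16 h, then dye-loaded at room temperature.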
Active calls of the source: *; u = inconclusive; x = not tested or not shown; & = joins results of further samples; [ ] = dose if it differs, or a comment. Random draw from the library; any-hit rate near 2.1%.

SMILES,Menin MLL FP FL,ClpP mod,TRPML1 inh,gsp agonist,gsp antagonist,TRPML1 agonist
O=C(COc1ccccc1Cl)NNC(=O)c1ccc2nc[nH]c2c1,x,-19%,-3,7%,7%,0.4
CCCn1c(C2CCCN2c2nc(-c3cccc(Br)c3)cs2)nc2cc(Cl)c(Cl)cc21 (centres undefined),8.3,-2.1%,1,-11%,-6%,-0.4
COC(=O)c1ccc(NC(=O)Cn2nc(SC)n(N)c2=S)cc1,2.2,-5.3%,30,24%,5%,1.0
CCn1c(=O)c2cc(C(=O)Nc3cc(C)on3)sc2c2ccccc21,-1.0,u,10,-45%[inhibitor],7%,0.1
COC(=O)c1cc(N/C(N)=N/c2nc(C)cc(C)n2)cc(C(=O)OC)c1,x,-0.6%,-15,-27%,x,-0.2
O=C1CCCCC1(O)Cc1ccc2c(c1)OCO2 (centres undefined),x,x,-6,25%,6%,-0.3
NC(=O)CC[C@@H]1NC(=O)[C@H](CO)NC(=O)c2cc([N+](=O)[O-])cc(I)c2OCC[C@@H](C(N)=O)NC1=O,3.4,0.3%,9,x,6%,0.2
COc1cccc(C#Cc2c(C=O)n(C)c3ccccc23)c1,x,-27%,15,x,-3%,0.8

Entries of single compounds as entered above. Screens in order: Menin MLL FP FL, ClpP mod, TRPML1 inh, gsp agonist, gsp antagonist, TRPML1 agonist
Profile of COC(=O)c1cc(N/C(N)=N/c2nc(C)cc(C)n2)cc(C(=O)OC)c1 → x, -0.6%, -15, -27%, x, -0.2
Profile of COC(=O)c1ccc(NC(=O)Cn2nc(SC)n(N)c2=S)cc1 → 2.2, -5.3%, 30, 24%, 5%, 1.0
Profile of O=C1CCCCC1(O)Cc1ccc2c(c1)OCO2 (centres undefined) → x, x, -6, 25%, 6%, -0.3
Profile of COc1cccc(C#Cc2c(C=O)n(C)c3ccccc23)c1 → x, -27%, 15, x, -3%, 0.8
Profile of O=C(COc1ccccc1Cl)NNC(=O)c1ccc2nc[nH]c2c1 → x, -19%, -3, 7%, 7%, 0.4

Next part
SMILES,Menin MLL FP FL,ClpP mod,TRPML1 inh,gsp agonist,gsp antagonist,TRPML1 agonist
CCC(C)NCc1ccc(C(=O)OC)o1 (centres undefined),3.1,3.2%,8,-11%,23%,0.3
CC(=O)OC1C=CN(C(C)=O)C(SC(C)(C)C)C1(C)O (centres undefined),x,-1.3%,14,3%,x,-0.3
C[C@H](NC(=O)Cc1ccccc1)C(=O)N1CCC2(CC1)NCCc1[nH]cnc12,x,-0.4%,0,14%,7%,0.1
C/C(=N\NC(=O)c1ccc(Cl)c(Cl)c1)c1cccc(NC(=O)C(C)C)c1,-0.2,0.5%,7,-16%,u,-0.4
COc1ccc(C2CC(c3ccc([N+](=O)[O-])cc3)=NN2C(C)=O)cc1 (centres undefined),-4.1,x,5,-4%,-15%,2.5
CCOC(=O)c1ccc(NC(=S)Nc2cccc(N)n2)cc1,-4.4,x,-15,-1%[15.4 µM],1%,2.3
CCCN1CCC(NC(=O)C2CCCCC2C(=O)O)CC1 (centres undefined),-1.6,0.5%,2,16%,13%,-0.3
O=C1COc2ccc(S(=O)(=O)Nc3ccc(OC(F)(F)F)cc3)cc2N1,x,1.5%,35,5%,0%,2.5
COc1ccc(C(C#N)=Cc2ccc(NC(C)=O)cc2)cc1,x,x,4,-15%,-17%,-0.5
Cc1ccc(Sc2ccc(N3CCC(C(=O)Nc4ccc(C)c(F)c4)CC3)nn2)cc1,x,-1.7%,15,x,x,-0.1
CC(=O)NC(CC(=O)NC1CCCc2ccccc21)c1ccccc1 (centres undefined),-2.4,x,-3,-27%[15.4 µM],6%,0.2
Cc1ccc(S(=O)(=O)NN2C(=O)/C(=C/c3ccc(F)cc3)SC2=S)cc1,-2.2,0.6%,-2,-3%[15.4 µM],-18%,-0.2
O=C(c1cnsn1)N1CCCC(Nc2ccc(F)c(F)c2)C1 (centres undefined),x,1.0%,-12,-25%,-11%,0.3
Cc1cn(C)c(CC(=O)Nc2ccc(F)cc2Cl)c1C(=O)O,x,-0.1%,-19,x,x,0.2
COc1ccc(CCNCC(=O)Nc2ccc(C)c(S(=O)(=O)N(C)C)c2)cc1,-3.8,x,-4,-31%[15.4 µM],11%,1.7
CCC(C(=O)NCc1ccc(C)cc1)c1ccccc1 (centres undefined),31[activator],0.9%,x,-30%,1%,x
Cc1ccc(SCc2cc(=O)[nH]c(Nc3nc(C)c4ccc(C)cc4n3)n2)cc1,-0.3,u,-7,21%,12%,-0.5
Cc1ccc(C)c(CNS(=O)(=O)c2ccc3c(c2)C(C)(C)C(=O)N3C)c1,-0.2,1.2%&0.0%,-7&-4,-42%[inhibitor],4%,1.3&-0.2
C#Cc1cccc(C(=O)N(Cc2cccnc2)CC2CCCN(C3CCCCC3)C2)c1 (centres undefined),x,-0.6%,9,-12%,x,-0.8
Cc1c(NC(=O)C2CCCO2)cccc1[N+](=O)[O-] (centres undefined),1.6,-2.4%,-3,-39%[inhibitor],6%,1.1
COc1cccc(-c2cc(C(=O)N3CCN(Cc4ccccc4)CC3)no2)c1,5.9,-1.0%,0,-7%,-5%,-0.5
CCCCCOC(=O)CSc1ncnc2c1sc1nc(N3CCOCC3)c3c(c12)CCCC3,x,-7.3%,4,x,x,0.6
COC(=O)C1=C(C)N(c2ccccc2)/C(=C/c2ccco2)C1=O,9.6,x,11,-9%[15.4 µM],-7%,1.3
C#CCOCCOCCOCCNc1nc(N2CCN(C(=O)[C@H](C(C)C)n3cc(CCO)nn3)CC2)nc(N2CCN(C(=O)[C@H](C)n3cc(CCCN=C(N)N)nn3)CC2)n1,x,-0.3%,26,x,5%,1.5
COc1ccccc1C(CNC(=O)c1cccc(S(=O)(=O)NCc2ccccc2)c1)N(C)C (centres undefined),x,-14%,27,10%,6%,-0.1
O=C(NC1CC1)c1cc(=S)[nH]c2ccccc12,x,-1.2%,-13,21%[15.4 µM],13%,0.2
CC(=O)c1cccc(-c2ccnc3c2CC(C(=O)NC(C)C)O3)c1 (centres undefined),x,0.9%,-17,x,x,0.3
[N-]=[N+]=CC(=O)C(O)(c1ccccc1)C(Cl)c1ccccc1 (centres undefined),x,0.2%,-4,1%,6%,-1.2
O=C1Nc2ccccc2OCc2c1cccc2[N+](=O)[O-],-0.1,x,-4,-13%[15.4 µM],9%,0.1
O=C(COC(=O)c1cccnc1Nc1cccc(C(F)(F)F)c1)NCc1ccc2c(c1)OCO2,0.8,81%,1,1%,11%,-0.6
CCN(CC)c1ccc(C(=O)Nc2ccc3nc(N(CC)CC)cc(C)c3c2)cc1,x,4.6%,-1,x,x,0.9
CC(OC(=O)c1ccc(Br)c(S(=O)(=O)N2CCOCC2)c1)C(=O)NC1CCCCC1C (centres undefined),x,1.1%,23,2%[15.4 µM],-6%,1.0
O=C(CNC(=O)/C(=C\c1ccccc1)NC(=O)c1ccc(Br)cc1)OCc1ccccc1,2.1,-1.3%,-17,-30%[inhibitor],-7%,0.7
O=C(NN1C(=O)c2ccc3c4c(ccc(c24)C1=O)CC3)c1ccc(Br)cc1,1.4,13µM*,-17,0%,2%,1.5
CCC1(c2ccccc2)NC(=O)N(CC(=O)Nc2ccc(S(=O)(=O)NC3=NCCCCC3)cc2)C1=O (centres undefined),x,2.5%,4,-59%[inhibitor],7%,0.2
COc1ccc(C2=CCCCCC2)c(OC)c1OC,x,x,-6,26%,-8%,2.3
Cc1ccc(S(=O)(=O)N2CCC[C@H]2C(=O)OCc2nc3ccccc3s2)cc1,x,x,25,-2%,-14%,-0.3
Cc1ccnc(SC2CC(=O)N(c3ccccc3)C2=O)n1 (centres undefined),x,-2.3%,5,u,x,0.9
COc1ccc(OC)c(NC(=O)CN(C)CC(=O)Nc2ccccc2Br)c1,-2.0,-6.1%,19,32%[15.4 µM],-51%,2.1
COc1ccccc1N1CCN(C(=S)NC(=O)c2ccc([N+](=O)[O-])cc2)CC1,x,1.6%,8,u,x,-0.9
CNC(=O)CN1C(=O)c2ccccc2S1(=O)=O,1.0,0.6%,9,-4%,3%,-0.4
CCOc1ccc(NC(=O)Cc2ccc(NC(=O)N3CCCCc4ccccc43)cc2)cc1,x,-1.9%,-16,x,x,-0.1
COc1ccc(CCNc2oc(COc3ccccc3F)nc2C#N)cc1OC,-0.2,-2.6%,5,-3%,-25%,2.1
COc1ccc(N2CCN(C(=O)C3CCCN(S(=O)(=O)c4ccc5c(c4)oc(=O)n5C)C3)CC2)cc1 (centres undefined),x,-0.1%&-5.3%,-4&-19,47%,10%,-0.9&-0.5
COc1ccc(CCC2CCNCC2)cc1,-2.6,-1.2%,31,-50%[inhibitor],-6%,1.2
CN1c2ccc([N+](=O)[O-])cc2C(C)(C)C12C=Cc1cc(C(=O)O)ccc1O2 (centres undefined),0.5,0.8%,10,u,u,1.0
COc1ccc(C(=O)c2c(-c3ccc(OC)cc3)oc3ccc(-c4cc(OC)c(OC)c(OC)c4)cc23)cc1,x,u,-11,x,6%,0.7
CCN(c1ccccc1)S(=O)(=O)c1ccc(C(=O)NNC(=O)c2ccccc2F)cc1,x,0.4%,-3,20%,7%,-0.5
Cc1cc(C)c(NC(=O)COc2ccccc2C(=O)Nc2ccc3c(c2)oc2ccccc23)c(C)c1,-0.6,275%,6,-23%,13%,0.5
CN(C)c1nc2c(c(=O)[nH]c(=O)n2C)n1Cc1ccc(F)cc1,1.4,2.3%,7,u,-1%,-0.6
COc1ccc(/C=C2/CCC(CN3CCOCC3)C2=O)cc1 (centres undefined),x,-1.5%,5,0%,17%,4.0
Cc1nn(Cc2cccc(C(=O)Nc3ccn(Cc4ccccc4)n3)c2)c(C)c1[N+](=O)[O-],1.4,-0.6%,-25,-3%,2%,1.3
CCC(C)(CC(=O)Nc1nccs1)c1ccccc1 (centres undefined),-0.8,-30%,1,-1%[15.4 µM],6%,0.4
COc1cccc(CNC(=O)CCCN2C(=O)CSc3c2c(C)nn3-c2ccccc2)c1OC,x,0.0%,-13,x,x,-1.1
O=C(CCc1nc(-c2ccccc2Cl)no1)NCc1ccco1,-0.3,-2.0%,-15,-16%,-3%,0.0

Assay outcomes (PubChem)
